Source: PubChem
2A StopGo – High Throughput Screening for Foot and Mouth Disease Virus Antivirals. human cells with a luciferase reporter of 2A StopGo recoding; control for the full effect not named in the record. Potency, µM (series often up to 57.9 µM), for inactives: at the top dose signal change, negative = less light. hit rate 1.2% among 410,000. AID 1159524, 2015; active = well fitted falling curve with a large enough effect; inconclusive = small, poorly fitted or top-dose-only effect; inactive = no such curve, though single readings can be large or run the other way; tested in HEK293T cells; also: % is scaled to controls: 0 for no effect and ±100 for the full control effect; nearly all actives have a fitted effect of over 45% in size; luciferase light after 4 h
NS1 function inh – qHTS Assay for Inhibitors of Influenza NS1 Protein Function | S. cerevisiae slowed by influenza A NS1, growth recovery by OD600 | Potency, µM (titrated, usually from 46.1 µM), inactives show at the top dose activity, positive = more growth | hit rate 0.4% among 270,000; active means well fitted rising curve with a large enough effect; inconclusive means small, poorly fitted or top-dose-only effect; inactive means no such curve, though single readings can be large or run the other way; also: nearly all actives have a fitted effect of over 50% in size
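OD600 was taken as the measure of yeast growth restored by compound in an NS1-expressing S. cerevisiae strain. Cells had been washed out of glucose medium and diluted 1:100 into galactose -URA medium, pH 6.0.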
Lassa entry inh – qHTS for Inhibitors of binding or entry into cells for Lassa Virus | hit rate 1.2% among 300,000 | Potency, µM (doses to about 37.9 µM), for the others: top-dose activity change, negative = inhibition, actives largely listed as inhibitors | Lassa virus pseudotype entry inhibition, cell reporter; control for the full effect not named in the record; active means well fitted inhibition curve with a large enough effect; inconclusive means small, poorly fitted or top-dose-only effect, or effect the other way; inactive means flat fitted curve, though single readings scatter; tested in HEK293 cells; also: % is scaled to controls: 0 for no effect and ±100 for the full control effect; nearly all actives have a fitted effect of over 50% in size; luciferase read-out
Cruzain noTriton – qHTS Assay for Promiscuous and Specific Inhibitors of Cruzain (without detergent); Cruzipain (Trypanosoma cruzi), P25779; purified cruzain, Z-FR-AMC fluorescence, no detergent; Potency, µM, for inactives: max response, negative = inhibition, most hits filed as inhibitors; hit rate 2.3% among 200,000; AID 1476, 2009;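 also: plate controls were enzyme without inhibitor for no effect and buffer without enzyme for full effect; nearly all actives have a fitted effect of over 40% in size; top concentration of the series not given in the record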
Target sequence (P25779 123-467 limits assumed): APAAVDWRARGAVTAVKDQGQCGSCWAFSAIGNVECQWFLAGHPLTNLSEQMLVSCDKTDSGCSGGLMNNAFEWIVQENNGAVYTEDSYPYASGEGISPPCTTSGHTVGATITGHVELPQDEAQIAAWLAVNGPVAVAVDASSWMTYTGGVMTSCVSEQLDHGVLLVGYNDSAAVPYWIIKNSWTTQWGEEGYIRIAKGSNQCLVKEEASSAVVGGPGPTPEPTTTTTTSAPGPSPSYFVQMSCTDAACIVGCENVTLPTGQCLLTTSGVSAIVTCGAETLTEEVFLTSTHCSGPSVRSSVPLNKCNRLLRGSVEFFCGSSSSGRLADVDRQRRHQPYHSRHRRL
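Detergent-free condition (0.00005% Triton X-100) in acetate buffer pH 5.5 with DTT. 1.5 nM enzyme and compound were pre-mixed 15 min, then 2 uM Z-FR-AMC substrate added; reaction progress from fluorescence change between first and third reads (60 s).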
Cruzain inh Det – qHTS Assay for Promiscuous and Specific Inhibitors of Cruzain (with detergent). purified cruzain, Z-FR-AMC fluorescence, 0.01% Triton. hit rate 0.43% among 200,000. AID 1478, 2009. Potency, µM, without a hit: max response, negative = inhibition, usual class: inhibitors;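 also: plate controls were neutral wells for no effect and buffer without enzyme for full effect; nearly all actives have a fitted effect of over 40% in size; top concentration of the series not given in the record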
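In this qHTS format, compounds are incubated with 1.5 nM cruzain for 15 min at room temperature before 2 uM Z-FR-AMC is added. Release of AMC is followed at 360/450 nm, and progress is taken as the 60 s fluorescence difference.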
SARS PLP yeast – qHTS of Yeast-based Assay for SARS-CoV PLP; S. cerevisiae expressing SARS-CoV PLpro, growth rescue; control for the full effect not named in the record; Potency, µM (highest dose often 32.9 µM), without a hit: at the highest dose activity, positive = growth rescue; hit rate 0.19% among 330,000; AID 485353, 2010; active means well fitted rising curve with a large enough effect; inconclusive means small, poorly fitted or top-dose-only effect; inactive means no such curve, though single readings can be large or run the other way; also: 0% is about no effect; nearly all actives have a fitted effect of over 55% in size; growth read by luminescence after 48 h
RE007 growth inh – qHTS Assay for Inhibitors of the HIV-1 protein Vpr; hit rate 0.21% among 360,000; Potency, µM (highest dose often 92.2 µM), without a hit: top-dose activity change, negative = less growth; S. pombe RE007 Vpr strain, BacTiter-Glo ATP luminescence, 24 h; control for the full effect not named in the record; active = well fitted falling curve with a large enough effect; inconclusive = small, poorly fitted or top-dose-only effect; inactive = no such curve, though single readings can be large or run the other way;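 also: % is scaled to controls: 0 for no effect and ±100 for the full control effect; nearly all actives have a fitted effect of over 50% in size; the assay follows cell death caused by Vpr and the record does not say whether a fall means rescue or toxicity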
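Fission yeast RE007 carrying one integrated HIV-1 vpr copy, seeded at OD 0.01 in PMG+AL medium with 23 nL pinned compound. Grown 24 h at 30 degrees; viability read by BacTiter-Glo luminescence after 5 min.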
MARV entry inh – qHTS for inhibitors of binding or entry into cells for Marburg Virus. hit rate 1.8% among 300,000. AID 540276, 2011. Potency, µM (series often up to 37.8 µM), without a hit: at the top dose activity change, negative = inhibition, hits mostly inhibitors. Marburg virus pseudotyped entry inhibition, cell reporter; control for the full effect not named in the record; about a third of the inactives were read at about 46 µM; active = well fitted inhibition curve with a large enough effect; inconclusive = small, poorly fitted or top-dose-only effect, or effect the other way; inactive = flat fitted curve, though single readings scatter; tested in HEK293 cells; about a fifth of its hits are not listed in these tables; also: % is scaled to controls: 0 for no effect and ±100 for the full control effect; luciferase read-out
* marks the source's active call; other numbers are inactive results; ? = inconclusive; . = not tested or not shown; & = joins results of further samples; [ ] = another dose, or the depositor's remark. Unless noted, calls follow the shape of the dose curve; as a rule, active = well fitted curve in the direction sought with a large enough effect; inconclusive = small, poorly fitted or top-dose-only effect, or another doubt; inactive = no such curve, though single readings can be large; an effect the other way counts as inactive or inconclusive. Potency is read from the fitted curve at half-maximal effect.

(1) CCCCOC(=O)Nc1ccc(C(N)=O)cc1
(2) COC(=O)c1sc(-c2ccccc2)cc1NC(=O)c1ccc(OC)cc1
(3) CC(=O)Nc1ccc(C(=O)OCC(=O)N(Cc2ccccc2)C(C)(C)C)cc1
(4) Cc1ccc(NC(=O)NCc2c(C)nn(C)c2C)cc1Cl
(5) COc1ccc(NC(=O)c2ccco2)cc1NC(=O)C(C)(C)Oc1ccc(Cl)cc1
(6) O=C(CSc1nnc(COc2ccc(F)cc2)o1)N1CCCCC1

assay / entry	1	2	3	4	5	6
2A StopGo	22%	-7%	-22%	66%[activator]	45µM*	-7%
NS1 function inh	-9%	28%	-12%	-7%	.	2%
Lassa entry inh	5%	-2%	-3%	8%	?	-1%
Cruzain noTriton	-2%	?	?	.	?	.
Cruzain inh Det	1.5%	-7.7%	-10%	.	-7.9%	.
SARS PLP yeast	-14%	10%	14%	-5%	.	0%
RE007 growth inh	6%	36%	-8%	5%	.	11%
MARV entry inh	9%	1%	-7%	14%	?	?

(7) O=C(NN=Cc1ccc([N+](=O)[O-])cc1)c1ccncc1
(8) NNC(=O)c1sc(-c2ccccc2)cc1N
(9) Cc1cccc(NC(=O)C[n+]2ccccc2)c1
(10) CCN(CC)CCN(C(=O)c1ccc(C(=O)c2ccccc2)cc1)c1nc2ccc(OC)cc2s1
(11) Cc1ccc(-c2nc3ccc(Cl)cc3n2OC(=O)N(C)C)cc1
(12) CCOC(=O)C1=C(C)N(C)C(=O)C1CC(=O)O (stereo not drawn)

assay / entry	7	8	9	10	11	12
2A StopGo	41%[activator]	13%	-8%	-2%	3%	1%
NS1 function inh	.	.	-4%	-26%	-4%	?
Lassa entry inh	?	.	-10%	7%[46.1 µM]	-5%	1%
Cruzain noTriton	.	.	.	.	-8%	-6%
Cruzain inh Det	.	.	.	.	2.3%	1.8%
SARS PLP yeast	.	1%	-1%	2%	3%	4%
RE007 growth inh	1%	8%	-4%	-10%	-17%	18%
MARV entry inh	8%[46.1 µM]	9%[46.1 µM]	8%	12%[46.1 µM]	?	14%

(13) O=C(CN1CCC(C(=O)c2ccc3c(c2)OCCO3)CC1)NC1CCCC1
(14) COc1ccc(-c2nnc(SCCC(=O)O)n2C)cc1OC
(15) O=C(Nc1ccc2c(c1)N(Cc1ccccc1)C(=O)c1ccccc1S2)NC1CC1
(16) CC(=O)Nc1cccc(NC(=O)COc2ccc3c(c2)OCO3)c1
(17) CCCC(C)C(=O)N(Cc1ccccc1)c1ccccn1 (stereo not drawn)
(18) COC(CNC(=O)Cn1ncc2ccsc2c1=O)OC

assay / entry	13	14	15	16	17	18
2A StopGo	-3%	-22%	-15%	57%[activator]	.	2%
NS1 function inh	4%	-2%	17%	2%	4%	4%
Lassa entry inh	24%	16%	?	-31%[46.1 µM]	32%	0%
Cruzain noTriton	-4%	1%	-12%	.	-3%	1%
Cruzain inh Det	0.5%	6.1%	-0.7%	.	-3.8%	-5.0%
SARS PLP yeast	2%	4%	-15%	3%	11%	10%
RE007 growth inh	-3%	0%	-8%	6%	-12%	0%
MARV entry inh	-13%	-19%	?	?	-1%	13%

(19) CCOC(=O)c1cnn(-c2ccccc2)c1-n1cccc1C(=O)C(=O)Nc1ccccc1C(F)(F)F
(20) CC(CCc1ccccc1)NC(=O)CCC(=O)N1CCC(C(N)=O)CC1 (stereo not drawn)
(21) COc1ccc(C)cc1NC(=O)C(c1ccccc1)N1CCN(CC(=O)N2CCCC2)CC1 (stereo not drawn)
(22) O=C1c2cc([N+](=O)[O-])ccc2-c2cc(Br)c(N=C(NO)C(F)(F)F)cc21
(23) COc1ccc(-c2ccc(CCC(=O)O)n2-c2ccc(Cl)cc2C)cc1
(24) Cc1ccc(-c2nn(Cc3ccccc3)cc2C(=O)O)cc1

assay / entry	19	20	21	22	23	24
2A StopGo	-19%	4%	-1%	0%	-16%	-9%
NS1 function inh	12%	9%	.	.	.	4%
Lassa entry inh	-29%	.	-3%	12%	-2%[46.1 µM]	.
Cruzain noTriton	4%	.	.	.	-9%	.
Cruzain inh Det	-6.2%	.	.	.	-16%	.
SARS PLP yeast	-9%	-6%	-2%	.	.	0%
RE007 growth inh	9%	-21%	-18%	-17%	.	12%
MARV entry inh	?	.	?	1%	?	.

Entries from the list above that have a Cl atom, in the order listed:
(4) Cc1ccc(NC(=O)NCc2c(C)nn(C)c2C)cc1Cl
(5) COc1ccc(NC(=O)c2ccco2)cc1NC(=O)C(C)(C)Oc1ccc(Cl)cc1
(11) Cc1ccc(-c2nc3ccc(Cl)cc3n2OC(=O)N(C)C)cc1
(23) COc1ccc(-c2ccc(CCC(=O)O)n2-c2ccc(Cl)cc2C)cc1

assay / entry	4	5	11	23
2A StopGo	66%[activator]	45µM*	3%	-16%
NS1 function inh	-7%	.	-4%	.
Lassa entry inh	8%	?	-5%	-2%[46.1 µM]
Cruzain noTriton	.	?	-8%	-9%
Cruzain inh Det	.	-7.9%	2.3%	-16%
SARS PLP yeast	-5%	.	3%	.
RE007 growth inh	5%	.	-17%	.
MARV entry inh	14%	?	?	?

Next section.
(25) O=C(NCCO)C(=O)Nc1cc2c3c(c1)CCC(=O)N3CCC2
(26) CCOc1cc(C2NN=C(c3ccc(C)cc3)S2)ccc1O (stereo not drawn)
(27) CC(=O)Oc1ccc(C(=O)O)c(OC(C)=O)c1
(28) CC[n+]1c(/C=C/c2ccc(OC)c(OC)c2)ccc2ccccc21
(29) CC(C)CN(CCCNC(=O)c1cc(-c2cccs2)nc2ccccc12)CC(C)C
(30) CC(=O)Nc1ccc2c(c1)C(=O)c1ccccc1C2=O

assay / entry	25	26	27	28	29	30
2A StopGo	-17%	32%[activator]	-17%	76%[activator]	-13%	57%[activator]
NS1 function inh	2%	-1%	4%	-15%	.	-71%
Lassa entry inh	.	?	.	.	1%[46.1 µM]	4%
Cruzain noTriton	.	4%	.	.	0%	3%
Cruzain inh Det	.	-4.1%	.	.	3.3%	1.5%
SARS PLP yeast	2%	-10%	0%	-7%	.	-11%
RE007 growth inh	1%	-18%	0%	-27%	.	?
MARV entry inh	.	?	.	.	?	3%

(31) COc1cccc(N2CCN(C(=O)CCCn3c(=O)[nH]c4ccc(Br)cc4c3=O)CC2)c1
(32) COCCNC(=O)/C(C#N)=C/c1cccc(NC(=O)c2ccccc2Cl)c1
(33) COc1ccccc1CNC(=O)CCc1c(C)nc2cc(-c3ccc(Cl)cc3)nn2c1C
(34) CNC(=O)OC(C)CNS(=O)(=O)c1ccc(C)cc1 (stereo not drawn)
(35) O=C(C[n+]1cc(-c2ccc(Cl)c(Cl)c2)n2c1CCC2)N1c2ccccc2Sc2ccccc21
(36) COCCCNC(=O)C(=O)Nc1cc2c3c(c1)CCN3C(=O)CC2

assay / entry	31	32	33	34	35	36
2A StopGo	?	0%	0%	24%	-26%	-10%
NS1 function inh	.	3%	.	6%	0%	-13%
Lassa entry inh	?	14%	6%[46.1 µM]	?	16%	.
Cruzain noTriton	?	-6%	12%	-2%	?	.
Cruzain inh Det	-5.1%	-3.5%	2.7%	3.3%	-6.8%	.
SARS PLP yeast	.	15%	.	2%	-28%	-5%
RE007 growth inh	.	-18%	.	0%	9%	-9%
MARV entry inh	-23%[46.1 µM]	-1%	0%[46.1 µM]	1%	?	.

(37) CC1CCN(CCNC(=O)c2ccc(NC(=O)C3CCCO3)cc2)CC1 (stereo not drawn)
(38) COC(=O)c1c(NC(=O)COC(=O)c2ccc(O)cc2)sc2c1CCCCC2
(39) CCN(CC)C(=O)c1sc2c(c1C)c(=O)n(Cc1ccccc1)c(=O)n2Cc1c(C)cc(C)cc1C
(40) O=C(COC(=O)c1cc(S(=O)(=O)N2CCCCC2)ccc1N1CCOCC1)c1ccc(Cl)cc1
(41) Cc1nc(NN)nc(NCc2ccccc2)n1
(42) O=C(CSc1nc2ccccc2o1)NC(=O)NCc1ccco1

assay / entry	37	38	39	40	41	42
2A StopGo	-1%	-20%	0%	12%	-15%	12%
NS1 function inh	4%	15%	.	.	11%	8%
Lassa entry inh	2%	-25%[46.1 µM]	?	?	.	-4%
Cruzain noTriton	-4%	-23%	-5%	.	.	-13%
Cruzain inh Det	3.5%	-2.9%	-2.3%	.	.	1.6%
SARS PLP yeast	15%	11%	.	2%	0%	1%
RE007 growth inh	4%	-1%	.	-21%	-10%	-1%
MARV entry inh	-24%	4%[46.1 µM]	.	?	.	10%

(43) O=C(CN1CCN(Cc2ccccc2)CC1)N/N=C\C=C/c1ccco1
(44) COc1ccc(OC)c(C(=O)COC(=O)c2ccccc2O)c1
(45) CC(C)(C)c1ccc(OCCC(=O)OCC(=O)Nc2ccc(N3CCOCC3)cc2)cc1
(46) COc1ccc(S(=O)(=O)N2CCN(C(=O)C3CCCCC3)CC2)cc1
(47) CC1=NOC2(C)Nc3ncnn3C(c3ccccc3)C12 (stereo not drawn)
(48) C=CCN(CC=C)C(=O)CN1C(=O)c2ccccc2C1=O
(49) OCC1(CCOc2ccccc2)CCN(Cc2ccc(OC(F)F)cc2)CC1
(50) O=C(O)CCc1ccc(-c2cccs2)o1

assay / entry	43	44	45	46	47	48	49	50
2A StopGo	-8%	37%[activator]	-1%	-24%	-19%	21%	-24%	.
NS1 function inh	-5%	-13%	.	-8%	8%	0%	-3%	-9%
Lassa entry inh	15%	22%	-4%	-2%	10%	-17%	-14%[46.1 µM]	16%
Cruzain noTriton	-1%	0%	.	.	4%	0%	.	-2%
Cruzain inh Det	-7.8%	-1.1%	.	.	3.1%	-0.8%	.	-4.8%
SARS PLP yeast	2%	-7%	0%	0%	-8%	17%	0%	-15%
RE007 growth inh	8%	8%[3.69 µM]	-13%	6%	-3%	3%	-1%	?
MARV entry inh	22%	12%	?	-12%[46.1 µM]	16%	12%	?	7%&7%
